Screening results deposited in PubChem BioAssay by National Center for Advancing Translational Sciences (NCATS).
D2 PAM = human D2 receptor positive allosteric modulation. P14416. DiscoveRx D2 beta-arrestin cells, luminescence, 90 min; 100% = 57 uM dopamine signal. potentiation, % (no concentration beside the values). 0.23% of 360,000 active. AID 624464; active = potentiation of 50% or more; inconclusive = 30% to 50%; inactive = 30% or less;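 also: compound concentration not given in the record; tested on top of an EC20 dose of dopamine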
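PathHunter D2 cells, attached overnight at 37 deg C, received compound in DMSO plus dopamine at EC20 (50 nM final) for 90 min at 37 deg C. Beta-arrestin recruitment was read as luminescence after 1 h with detection reagent at ambient temperature.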
PINK1 expr mod = modulators of PINK1 expression | PINK1 immunofluorescence, high-content cytometry, 24 h | Potency, µM (top dose mostly 76.6 µM), for the others: at the top dose activation (PINK1 increase), most hits filed as activators | 0.2% of 410,000 active; active = well fitted activation curve with a large enough effect; inconclusive = small, poorly fitted or top-dose-only effect; inactive = flat fitted curve, though single readings scatter; cell line not stated here;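 also: potency is read from the fitted curve at half-maximal effect; % of control where 0% means no effect; nearly all actives have a fitted effect of over 65% in size; a mitochondrial uncoupler was the plate control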
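PINK1 protein level read as immunofluorescence by microplate cytometer in a fixed, stained stable cell line after 24 h exposure to five compound concentrations, with CCCP as control.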
TRPML1 ag = activates the human TRPML1 channel. Q9GZU1. activation, % (test concentration not listed). TRPML1-expressing cells, Ca2+ dye fluorescence, FDSS; host cell line not named in the record; reference of the full effect not given here. AID 624414. 0.12% of 410,000 active; in the data active = activation above about 50%; inconclusive = about 30% to 50%; inactive = below about 30%; also: 0% is about no effect; the text of the record puts the active cut at 80%
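Kinetic FDSS Ca2+ read in Tet-induced TRPML1-DL cells (ABD Ca8 dye plus quencher, 45-90 min RT loading): baseline, then compound, then 110 s agonist window; EC80 agonist 54-4 at 4uM final added afterwards for a 110 s antagonist window.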
D2 agonist = activates the human D2 dopamine receptor. P14416. DiscoveRx PathHunter D2 beta-arrestin, luminescence, 90 min; 100% = 57 uM dopamine signal. activation, % (concentration not given with the values). 0.084% of 360,000 active; in the data active = activation above about 40%; inconclusive = about 15% to 40%; inactive = below about 15%; also: compound concentration not given in the record; the text of the record calls up to 30% inactive
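Agonist mode: compounds alone added to overnight-plated D2 PathHunter cells for 90 min at 37 C, with 57 uM final dopamine (EC100) defining full response. Beta-arrestin recruitment detected by chemiluminescent reagent, read after 1 h at ambient temperature.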
CtBP-E1A inh = blocks the CtBP interaction with E1A; 0.49% of 340,000 active; activity change, % (no concentration beside the values); AlphaScreen GST-E1A/His-CtBP binding, 1536-well; stronger effect = lower value; control for the full effect not named in the record; in the data active means activity change below about -65%; inconclusive means about -30% to -65%; inactive means above about -30%; also: % is scaled to controls: 0 for no effect and ±100 for the full control effect; compound concentration not given in the record
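In 5 uL wells, 23 nL compound meets equimolar GST-E1A and His-CtBP (5X stock 125 nM each) for 2 h, 37 °C. Beads (5X, 50 ug/mL) then 1 h, 37 °C, dark.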
Six1-Eya2 inh = Six1/Eya2 interaction inhibition; activity change, % (no concentration beside the values); AID 651725; AlphaScreen GST-Six1/His-Eya2 binding, biochemical; stronger effect = lower value; control for the full effect not named in the record; 0.56% of 360,000 active; Q15475+O00167; in the data active = activity change below about -65%; inconclusive = about -30% to -65%; inactive = above about -30%; also: % is scaled to controls: 0 for no effect and ±100 for the full control effect; compound concentration not given in the record
Target sequence (O00167 whole entry, looked up): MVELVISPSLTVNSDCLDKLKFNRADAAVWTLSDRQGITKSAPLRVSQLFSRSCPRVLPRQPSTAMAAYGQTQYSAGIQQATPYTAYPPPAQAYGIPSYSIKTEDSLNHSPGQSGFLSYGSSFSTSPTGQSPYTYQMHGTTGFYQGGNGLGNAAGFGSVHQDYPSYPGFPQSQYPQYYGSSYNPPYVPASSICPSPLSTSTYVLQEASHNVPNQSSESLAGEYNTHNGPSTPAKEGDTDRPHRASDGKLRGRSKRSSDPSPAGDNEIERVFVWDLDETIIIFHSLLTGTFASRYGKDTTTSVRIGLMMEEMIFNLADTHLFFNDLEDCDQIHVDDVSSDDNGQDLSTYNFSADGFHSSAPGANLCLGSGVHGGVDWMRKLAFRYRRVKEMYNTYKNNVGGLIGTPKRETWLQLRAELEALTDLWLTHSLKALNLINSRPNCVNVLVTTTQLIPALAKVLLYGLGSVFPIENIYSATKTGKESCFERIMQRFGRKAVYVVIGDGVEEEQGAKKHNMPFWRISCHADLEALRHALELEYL
Target sequence (Q15475 whole entry, looked up): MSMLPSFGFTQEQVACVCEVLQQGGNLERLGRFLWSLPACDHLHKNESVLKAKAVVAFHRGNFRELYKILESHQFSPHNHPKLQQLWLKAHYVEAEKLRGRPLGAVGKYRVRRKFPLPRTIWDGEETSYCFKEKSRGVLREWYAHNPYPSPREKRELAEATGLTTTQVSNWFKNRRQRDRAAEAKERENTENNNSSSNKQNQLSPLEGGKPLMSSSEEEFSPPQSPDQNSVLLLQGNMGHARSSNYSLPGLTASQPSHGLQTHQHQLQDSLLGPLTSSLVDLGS
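Six1/Eya2 binding was read as AlphaScreen signal after compounds were pinned into GST-Six1 plus His-tagged Eya2 (5X stock 250/500 nM) in pH 8.0 Tris/NaCl/TCEP buffer, beads added, then incubated 1 h, 37 C, dark.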
* = called active by the depositor; ? = inconclusive; . = no result given; [ ] = dose if it differs, or a comment.

SMILES	D2 PAM	PINK1 expr mod	TRPML1 ag	D2 agonist	CtBP-E1A inh	Six1-Eya2 inh
O=C(COC(=O)c1ccccc1SCC(=O)N1CCCC1)NC1CCCCC1	-2	-2.3%	0.4	-2.3	2	-6
COc1ccc2nc(SCC(=O)C(C)(C)C)[nH]c2c1	-18	0.3%	-0.7	-3.7	.	-1
Cc1nc(NC(=O)CN(C)S(=O)(=O)c2ccc(Cl)cc2)sc1C	-14	-1.1%[38.3 µM]	3.4	-3.0	-6	-2
CN1CCN(C2CCN(c3ccc(Nc4nnc(Cl)c(Nc5ccccc5S(C)(=O)=O)n4)c(OC(CF)CF)c3)CC2)CC1	-9	2.3%	-0.1	-0.8	?	-17
COc1ccc(NC(=O)CNS(=O)(=O)c2cccs2)cc1	5	-0.7%	0.2	-1.3	3	3
CCCCn1c(C(C)NC(=O)COC)nc2ccccc21 (configuration not stated)	-10	3.0%	0.2	-1.9	-2	12
N#CC1(Cc2ccc([N+](=O)[O-])cc2)c2ccccc2C=CN1C(=O)c1ccccc1 (configuration not stated)	-7	0.8%	1.7	-1.3	-7	2
COc1ccc(-n2c(COc3ccccc3)nnc2SCc2ccc(C#N)cc2)cc1	0	-2.5%	1.5	-3.1	4	0
Cc1cc(OCC(=O)Nc2ccccn2)c2c(C)cc(=O)oc2c1	-2	5.7%	-0.5	0.5	-1	-6
COc1cc(C2N(C)C(=O)c3ccccc3N2C)ccc1O (configuration not stated)	3	3.6%	-0.8	-1.4	12	10
COc1ccccc1NS(=O)(=O)c1ccc(N/N=C(\C)C(C)C)c([N+](=O)[O-])c1	-16	1.6%	2.4	-3.9	?	?
CSc1ccccc1NC(=O)CSc1nnnn1-c1ccccc1SC	8	0.2%	1.1	-0.9	3	2
COCCn1c(-c2cc(OC)c(OC)c(OC)c2)nc2oc3ccccc3c(=O)c2c1=O	7	0.0%	-0.4	-5.5	-25	-3
N#C/C(C(=O)Oc1ccccc1)=C1/Nc2ccccc2-c2ccccc21	-7	1.5%	1.1	-2.7	1	-3
COC(=O)CC1C(=O)NCCN1C(=O)CSc1nc2ccccc2o1 (configuration not stated)	-20	0.3%	-0.5	-3.9	8	0
O=C(COC(=O)c1ccccc1Cl)NC1CCCCCCC1	-22	1.0%	2.8	9.7	12	-5
COC(=O)c1c(NC(=O)COC(=O)Cn2cnc3ccccc32)sc(C)c1C	-6	-2.0%	1.0	-2.8	1	1
CCCC(C(=O)NC(C)(C)C)N(C(=O)c1snc(C(N)=O)c1N)c1ccc2c(c1)OCCO2 (configuration not stated)	1	3.8%	0.2	2.2	1	3
O=C(NC(=O)c1csnn1)Nc1ccccc1Cl	-3	0.8%	0.0	-1.1	0	1
O=C(/C=C/c1cccnc1)c1ccc([N+](=O)[O-])cc1	17	-1.8%	-0.3	8.4	-6	-23
O=C(NC(=S)NCCC1=CCCCC1)c1cncc(Br)c1	-3	5.6%	-0.3	-3.8	-13	-4
Cc1ccc(C)c(N(C)S(=O)(=O)c2cccc3nsnc23)c1	1	-1.9%	-1.3	-3.3	-8	-3
Cc1ccc(C(=O)N2CCN(CCNC(=O)C(=O)NCc3ccc(Cl)cc3)CC2)cc1	-28	-0.6%	-1.1	-1.8	3	5
C[C@@H](NC(=O)CN1C(=O)c2ccccc2S1(=O)=O)c1ccccc1	-6	2.2%	0.1	-1.6	.	9
Nc1cc(C(Cl)=C(Cl)Cl)c(S(N)(=O)=O)cc1S(N)(=O)=O	-2	1.9%	-0.8	1.4	-2	3
CCC1(CC)C(=O)N=C2c3ccccc3C(=O)N21	-17	2.1%	0.6	-1.7	17	-2
Cc1cccc(C)c1NC(=O)C1CCCN1C(=O)Nc1cccc(F)c1 (configuration not stated)	0	1.5%	1.4	0.2	7	9
Cc1cc(C)c2sc(N(CCN(C)C)C(=O)c3ccc4ccccc4c3)nc2c1	-19	11%	0.5	-5.5	.	-4
CC(=NNC(=S)N(Cc1ccccn1)Cc1ccccn1)c1cnccn1	?	-1.1%	0.6	?	-3	-90*
COc1cccc(NC(=O)CN2C(=O)C(c3ccc(C)cc3)=NC23CCCCCC3)c1	0	12%	-0.3	-3.9	10	7
CC1CCCC(C)N1C(=O)COC(=O)c1cc(F)c(F)cc1Cl (configuration not stated)	-1	1.5%	2.6	4.7	5	6
Cc1c(C(=O)NCc2cccnc2)sc2ncn(CC(=O)N3CCCCC3C)c(=O)c12 (configuration not stated)	-19	1.8%	-0.4	-2.9	4	9
Cc1ccc(S(=O)(=O)/N=C(\N)c2ccc(Cl)cc2)cc1	1	-0.5%	0.6	1.3	7	-3
CCn1nc(C(=O)Nc2ccc(Cl)c(S(=O)(=O)N3CCOCC3)c2)c2ccccc2c1=O	29	-2.6%	2.2	0.6	-27	-22
NC(=O)C1(N2CCCCC2)CCN(S(=O)(=O)c2ccccc2)CC1	16	-1.6%	0.2	-0.4	2	-4
CCCn1c(=O)c2ccccc2n2c(SCC(=O)c3ccccc3)nnc12	0	-1.5%[38.3 µM]	1.9	1.6	-2	-1
CN(C)c1ccc(NC(=O)CCCCCn2nnc3ccccc3c2=O)cc1	-7	1.0%	1.9	1.1	.	-7
CC(=O)n1ccnc1	11	0.0%	0.5	-3.4	5	1
COc1ccccc1NS(=O)(=O)c1ccc(C(=O)NCC(c2ccco2)N2CCCCC2)cc1 (configuration not stated)	-6	-1.6%	-0.3	-3.0	0	15
Nn1cc(-c2ccccc2)nc1SCC(=O)NCC(F)(F)F	0	0.5%	-0.6	-4.8	6	-4

Rewritten bar-delimited: 13 of the compounds above
compound | D2 PAM | PINK1 expr mod | TRPML1 ag | D2 agonist | CtBP-E1A inh | Six1-Eya2 inh
Nc1cc(C(Cl)=C(Cl)Cl)c(S(N)(=O)=O)cc1S(N)(=O)=O | -2 | 1.9% | -0.8 | 1.4 | -2 | 3
CCC1(CC)C(=O)N=C2c3ccccc3C(=O)N21 | -17 | 2.1% | 0.6 | -1.7 | 17 | -2
Cc1cccc(C)c1NC(=O)C1CCCN1C(=O)Nc1cccc(F)c1 (configuration not stated) | 0 | 1.5% | 1.4 | 0.2 | 7 | 9
Cc1cc(C)c2sc(N(CCN(C)C)C(=O)c3ccc4ccccc4c3)nc2c1 | -19 | 11% | 0.5 | -5.5 | . | -4
CC(=NNC(=S)N(Cc1ccccn1)Cc1ccccn1)c1cnccn1 | ? | -1.1% | 0.6 | ? | -3 | -90*
COc1cccc(NC(=O)CN2C(=O)C(c3ccc(C)cc3)=NC23CCCCCC3)c1 | 0 | 12% | -0.3 | -3.9 | 10 | 7
CC1CCCC(C)N1C(=O)COC(=O)c1cc(F)c(F)cc1Cl (configuration not stated) | -1 | 1.5% | 2.6 | 4.7 | 5 | 6
Cc1c(C(=O)NCc2cccnc2)sc2ncn(CC(=O)N3CCCCC3C)c(=O)c12 (configuration not stated) | -19 | 1.8% | -0.4 | -2.9 | 4 | 9
Cc1ccc(S(=O)(=O)/N=C(\N)c2ccc(Cl)cc2)cc1 | 1 | -0.5% | 0.6 | 1.3 | 7 | -3
CCn1nc(C(=O)Nc2ccc(Cl)c(S(=O)(=O)N3CCOCC3)c2)c2ccccc2c1=O | 29 | -2.6% | 2.2 | 0.6 | -27 | -22
NC(=O)C1(N2CCCCC2)CCN(S(=O)(=O)c2ccccc2)CC1 | 16 | -1.6% | 0.2 | -0.4 | 2 | -4
CCCn1c(=O)c2ccccc2n2c(SCC(=O)c3ccccc3)nnc12 | 0 | -1.5%[38.3 µM] | 1.9 | 1.6 | -2 | -1
CN(C)c1ccc(NC(=O)CCCCCn2nnc3ccccc3c2=O)cc1 | -7 | 1.0% | 1.9 | 1.1 | . | -7

The listing continues.
SMILES	D2 PAM	PINK1 expr mod	TRPML1 ag	D2 agonist	CtBP-E1A inh	Six1-Eya2 inh
O=c1[nH][nH]cc1C=Nc1ccccc1Cl	-3	2.1%	-0.4	-4.9	.	14
Cc1cc(C(=O)OCC(=O)NC2CCC(C)CC2)c(C)o1 (configuration not stated)	-22	4.5%	0.6	-7.6	1	-6
CN(C)S(=O)(=O)c1ccc(N2CCCC2)c(C(=O)Nc2nc3ccc(F)cc3s2)c1	-8	-1.1%	-0.2	-1.2	-3	-14
CCC(C)NC(=O)c1ccccc1SC (configuration not stated)	-33	3.0%	-0.6	-2.6	0	-9
COc1cc(/C=N\NC(=O)C2COc3ccccc3O2)cc(OC)c1O (configuration not stated)	7	2.0%	-0.4	-0.5	-6	-8
COc1cccc(/C(O)=C2/C(=O)C(=O)N(c3cc(C)on3)C2c2cccs2)c1 (configuration not stated)	-23	-2.5%	2.7	-4.9	3	-1
COc1ccc(CNC(=O)c2c(-c3c(F)cccc3Cl)noc2C)cc1	-4	0.6%	-1.2	-0.2	12	3
CC(C)C(=O)NC(NCC1CCCO1)C(Cl)(Cl)Cl (configuration not stated)	-1	-0.4%	-0.3	-2.2	8	7
O=C(c1ccco1)N1CCN(c2ncnc3scc(-c4cccs4)c23)CC1	-3	14%[38.3 µM]	1.5	1.7	3	-6
CC1Cc2ccccc2N1C(=O)CSc1nnc2c(n1)[nH]c1ccccc12 (configuration not stated)	-1	-0.8%	-1.3	-3.7	-18	-24
O=C1CS/C(=N/N=C/c2ccccc2OS(=O)(=O)c2ccccc2)N1	-9	0.5%	1.7	-1.2	1	-1
COc1cc(CCC(=O)OCC(=O)Nc2ncc(Cl)cc2Cl)cc(OC)c1OC	-22	3.9%	0.4	1.3	-2	-8
Cc1cccc(S(=O)(=O)NC(=O)C2(C)CCN2C(=O)c2cccc(F)c2)c1 (configuration not stated)	-14	2.2%	0.0	-4.3	10	6
COc1ccc(F)cc1-c1cc(NC=O)c2ncc(-c3cccc(C(F)(F)F)c3)n2c1	-19	2.3%	0.3	-9.0	-20	?
O=C(c1ccccc1Cl)N1CCC(c2nc3c(nnn3Cc3ccco3)c(=O)[nH]2)CC1	5	14%	-0.8	-1.4	-3	4
COc1cccc(C(=O)N(C)CC(=O)Nc2ccc(F)c(F)c2F)c1	-2	0.5%	1.7	0.5	-13	12
Cc1cc(C(=O)NNC(=O)c2ccc(C)s2)c(C)o1	3	2.9%	0.4	-1.8	-7	4
CCCc1cc(=O)n2[nH]c(-c3ccco3)nc2n1	-4	6.0%[38.3 µM]	-0.4	-3.2	39	22
COc1ccc(-c2csc(NC(=O)C3=COCCO3)n2)cc1OC	-12	2.8%	0.7	7.9	-14	5
CCOC(=O)c1ccc2c(c1)nc(SCC(=O)NC(C)C)n2CC	-8	4.9%[38.3 µM]	4.3	-2.2	-7	0
CC(=O)Nc1cccc(NC(=O)C(=O)c2cn(CC(=O)N3CCCC3)c3ccccc23)c1	12	5.0%	-0.4	4.3	5	-6
CC[C@@H]1CCC[C@@H](O)[C@@H](C)C(=O)O[C@H](C)[C@@H](C)C/C=C(C)/C(OC)=C\C(=O)N(C)C([C@@H](C)CC)C(=O)N(C)[C@@H](C(C)C)C(=O)N(C)[C@@H](COC)C(=O)N2CCC[C@H]2C(=O)N(C)[C@@H](C(C)C)C(=O)N2CCC[C@H]2C(=O)O1 (some centres not stated)	-8	?	51*	-4.9	1	-3
CCN(CC)CCn1c2c(c(SCC(=O)Nc3nccs3)nc1=O)CCCC2	-13	-1.0%	0.6	-0.2	-16	-2
